Screening results (PubChem BioAssay)
Sfp PPTase inh: qHTS Assay for Inhibitors of Bacillus subtilis Sfp phosphopantetheinyl transferase (PPTase) | 4'-phosphopantetheinyl transferase ffp (Bacillus subtilis), Q9F4F7 | Biochemical Sfp PPTase activity, qHTS | Potency, µM, without a hit: max response, negative = inhibition, hits mostly inhibitors | actives 3.5% (n = 310,000) | AID 1490, 2009; active means well fitted inhibition curve with a large enough effect; inconclusive means small, poorly fitted or top-dose-only effect, or another doubt; inactive means no such curve, though single readings can be large or run the other way;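 further: the enzyme is Sfp with the accession as filed and its product quenches rhodamine fluorescence; potency means the concentration at half of the fitted maximal effect; 0% = enzyme reaction without inhibitor and -100% = no enzyme wells; top concentration of the series not given in the record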
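Reaction rates are the 30-min fluorescence difference (ex 525, em 598 nm) in wells containing 15 nM Sfp, 5 uM rhodamine-CoA and 12.5 uM BHQ-2-YbbR at pH 7.6 with 10 mM MgCl2.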
D2 ag: Beta-Arrestin HTS for Positive Allosteric Modulators of the Human D2 Dopamine Receptor: Agonists; D(2) dopamine receptor (Homo sapiens), P14416; AID 624465, 2012; DiscoveRx PathHunter D2 beta-arrestin, luminescence, 90 min; 100% = 57 uM dopamine signal; actives 0.084% (n = 360,000); activation, % (concentration not given with the values); in the data active = activation above about 40%; inconclusive = about 15% to 40%; inactive = below about 15%; further: compound concentration not given in the record; the text of the record calls up to 30% inactive
Target sequence (P14416 whole entry, looked up): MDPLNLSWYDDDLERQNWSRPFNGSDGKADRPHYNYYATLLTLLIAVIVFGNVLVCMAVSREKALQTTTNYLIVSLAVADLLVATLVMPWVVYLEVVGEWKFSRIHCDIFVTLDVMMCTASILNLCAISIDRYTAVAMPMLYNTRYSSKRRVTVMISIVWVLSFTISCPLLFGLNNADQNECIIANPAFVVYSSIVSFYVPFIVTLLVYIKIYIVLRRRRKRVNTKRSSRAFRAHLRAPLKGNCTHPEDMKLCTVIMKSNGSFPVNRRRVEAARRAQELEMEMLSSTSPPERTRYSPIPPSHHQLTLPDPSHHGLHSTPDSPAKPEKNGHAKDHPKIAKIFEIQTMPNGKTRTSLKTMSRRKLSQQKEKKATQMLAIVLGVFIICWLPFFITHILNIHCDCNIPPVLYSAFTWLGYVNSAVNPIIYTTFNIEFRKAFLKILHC
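Agonist mode: compounds alone added to overnight-plated D2 PathHunter cells for 90 min at 37 C, with 57 uM final dopamine (EC100) defining full response. Beta-arrestin recruitment detected by chemiluminescent reagent, read after 1 h at ambient temperature.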
gsp agonist: qHTS for Agonist of gsp, the Etiologic Mutation Responsible for Fibrous Dysplasia/McCune-Albright Syndrome: qHTS; gsp mutant cells, cAMP HTRF, 30 min; control for the full effect not named in the record; Potency, µM (doses to about 76.9 µM), inactives show at the highest dose activation (cAMP increase), usual class: activators; actives 0.13% (n = 340,000); AID 624287, 2012; active = well fitted activation curve with a large enough effect; inconclusive = small, poorly fitted or top-dose-only effect, or another doubt; inactive = no such curve, though single readings can be large or run the other way; cell line not stated here;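 further: phosphodiesterase inhibitor Ro 20-1724 added with compounds to block cAMP breakdown; potency means the concentration at half of the fitted maximal effect; nearly all actives have a fitted effect of over 60% in size; about a fifth of the inactives were tested at one dose only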
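Cells stably selected in G418 were plated at 2000/well, grown 16-24 hr, then given compounds in DMSO with the PDE inhibitor […] (300 uM solution added) for 30 min at 37C; cAMP was read by HTRF.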
Menin-MLL FL inh: qHTS Assay for Inhibitors Targeting the Menin-MLL Interaction in MLL Related Leukemias: Competition With Fluorescein Labeled MLL-derived Peptide. Fluorescence polarization, fluorescein-MLL peptide displacement from menin. FP activity change, % at 61.4 µM. 290,000 tested, under 10 active; inconclusive = falling polarisation curve, or a change in total fluorescence; inactive = total fluorescence flat and polarisation flat or rising; no compound was filed as active; the % refers to the polarisation; negative = inhibition;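 further: % of control where 0% means no effect; inhibitors lower the polarisation; unlabelled MLL peptide was the positive control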
gsp antagonist: qHTS for Antagonists of gsp, the Etiologic Mutation Responsible for Fibrous Dysplasia/McCune-Albright Syndrome: qHTS; AID 624288, 2012; gsp-mutant cells, cAMP HTRF, 30 min; control for the full effect not named in the record; Potency, µM (series often up to 76.9 µM), for the others: at the highest dose activity change, negative = inhibition, actives largely listed as inhibitors; actives 0.4% (n = 340,000); active = falling curve of any shape with a large fitted effect; inconclusive = falling curve, mostly with a smaller effect; inactive = flat or rising curve; cell line not stated here;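 further: intracellular cAMP measured with PDE inhibitor Ro 20-1724 present during compound exposure; potency means the concentration at half of the fitted maximal effect; on the % scale 0 is the no-effect control and ±100 the full control effect; nearly all actives have a fitted effect of over 65% in size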
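Measurement of cellular cAMP by homogeneous time-resolved fluorescence following a 30 min compound exposure at 37C. The PDE inhibitor […] was present throughout; the assay buffer was DPBS with 0.05% BSA and 0.005% Tween 20.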
PINK1 modulator: A Quantitative High throughput Screen to Identify Chemical Modulators of PINK1 Expression; PINK1 immunofluorescence, high-content cytometry, 24 h; Potency, µM (doses to about 76.6 µM), for inactives: at the highest dose activation (PINK1 increase), actives largely listed as activators; actives 0.2% (n = 410,000); AID 624263, 2012; active = well fitted activation curve with a large enough effect; inconclusive = small, poorly fitted or top-dose-only effect; inactive = flat fitted curve, though single readings scatter; cell line not stated here;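 further: potency means the concentration at half of the fitted maximal effect; % of control where 0% means no effect; nearly all actives have a fitted effect of over 65% in size; a mitochondrial uncoupler was the plate control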
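PINK1 protein, normally rapidly degraded, was detected by immunofluorescence after 24 hour compound treatment of a stable cell line. Titration data (5 concentrations) came from laser-scanning cytometry, with CCCP-treated wells as controls.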
ClpP mod: qHTS Assay for Activators of ClpP; AID 651965, 2013; actives 1.9% (n = 340,000); Potency, µM (top dose mostly 57.5 µM), inactives show top-dose activity change, negative = active; ATP-dependent Clp protease proteolytic subunit (Bacillus subtilis (strain 168)), P80244; purified B. subtilis ClpP, FRET peptide cleavage, 20 min; active = well fitted falling curve with a large enough effect; inconclusive = small, poorly fitted or top-dose-only effect; inactive = no such curve, though single readings can be large or run the other way; further: potency means the concentration at half of the fitted maximal effect; the source files actives as falling curves though it sought activators and does not explain the sign; nearly all actives have a fitted effect of over 65% in size; many hits overshoot -100%
Target sequence (P80244 whole entry, looked up): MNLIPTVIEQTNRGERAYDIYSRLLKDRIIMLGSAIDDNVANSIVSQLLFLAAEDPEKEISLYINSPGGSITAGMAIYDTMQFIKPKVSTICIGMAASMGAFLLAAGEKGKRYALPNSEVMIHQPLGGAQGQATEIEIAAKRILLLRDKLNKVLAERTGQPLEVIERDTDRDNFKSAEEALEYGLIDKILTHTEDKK
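Purified B. subtilis ClpP, 10 microg/mL final in Tris/HCl pH8 with KCl, BSA, glycerol and Tween-20, cleaved an Abz/nitrotyrosine-quenched decapeptide. Fluorescence (ex 320, em 430) was read at 0 and 20 min at room temperature. Delta was normalized to 5.8 microM ADEP and DMSO/no-enzyme controls.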
Starred values were filed as active, the others as inactive; ? = inconclusive; nt = not tested or not shown; & = joins results of further samples; [ ] = remark or other dose. Compounds as they come; about 5.1% have a hit in one of these screens.

SMILES	Sfp PPTase inh	D2 ag	gsp agonist	Menin-MLL FL inh	gsp antagonist	PINK1 modulator	ClpP mod
Cc1ccc(SCCC(=O)OCn2nnc3ccccc3c2=O)cc1	?	-1.7	14.4%[15.4 µM]	8.6	0.9%	2.6%	nt
O=C(CCCN1C(=O)c2ccccc2C1=O)NCc1cccnc1	19.5%	3.4	?	-0.7	9.7%	-3.1%	-0.8%
COc1ccc(C(=O)NNC(=O)C23CC4CC(CC(C4)C2)C3)cc1OC	nt	7.4	?	nt	3.6%	-0.8%	-2.2%
CCC1Oc2ccccc2N(CC(=O)Nc2ccc3c(c2)OCCO3)C1=O (centres undefined)	4.1%	-2.3	-16.7%	0.9	4.8%	-2.1%[38.3 µM]	-0.1%
CC1CC(C)CN(CC(=O)N2CCOCC2)C1 (centres undefined)	-8.5%	-1.6	-43.0%[inhibitor]	-2.5	0.1%	-0.5%	1.6%
CCOC(=O)c1c(C)n(-c2ccccc2)c2ccc(O)cc12	?	1.0	18.8%[15.4 µM]	-0.8	-5.3%	4.2%	nt
O=C(CCSCc1ccccc1Cl)NC1CCCC1	-1.6%	0.0	-0.9%[15.4 µM]	-0.9	1.8%	-1.0%	-1.9%
O=C(/C=C/c1ccccc1)Nc1ccc(NC(=O)c2cccs2)cc1	18.5%	-4.9	-28.7%	2.6	4.1%	1.6%	0.9%
CCOC(=O)N1CCC(n2c(SCC(=O)Nc3ccccc3OC)nc3ccccc3c2=O)CC1	9.6%	-0.2	-6.1%	0.4	-21.0%	-0.4%	-0.6%
CN(C)C(=O)c1ccc(-c2nnc(NCc3ccccc3)c3ccccc23)cc1	-5.0%	-1.5	-20.9%	1.0	0.5%	-2.3%	-2.5%
COCCn1c(=O)cnc2cnc(OCc3ccccc3)nc21	5.5%	nt	nt	3.9	nt	0.1%	nt
CCn1c(=O)c2sccc2n(Cc2ccccc2)c1=O	-0.7%	-0.5	5.8%	0.9	-3.4%	-0.9%	0.2%
Fc1ccccc1OCCSc1nc2ccccc2o1	4.6%	-9.8	-51.1%[inhibitor]	-1.5	-3.4%	?	1.8%
CCn1ncc(CN2CCC(Oc3ccc(C(=O)N4CCCC4)cc3)CC2)c1C	-0.8%	-0.8	30.9%	nt	13.2%	-0.6%	-0.5%
C[C@H]1COC(=O)CCCC/C=C\C[C@H](CC(=O)N(CCO)Cc2ccccc2)C(=O)N1	nt	2.1	nt	nt	7.2%	0.1%	0.9%
Cc1ccnn1CCC(=O)N1CCCC(Nc2ccc(F)c(F)c2)C1 (centres undefined)	4.1%	-3.7	?	-8.1	12.4%	-1.3%	2.1%
COc1cccc(/C=N/Nc2snc(SC)c2C#N)c1	56.2µM*	0.4	-7.3%	5.4	-6.3%	9.6%	7.2%
COCc1c(C(=O)Nc2nnc(C3CC3)s2)oc2ccccc12	nt	0.1	9.5%	nt	nt	-0.2%	-2.0%
COc1ccc(-c2noc(-c3ccccc3C(=O)NCC3CCCO3)n2)cc1 (centres undefined)	13.8%	-4.9	0.0%	2.0	2.3%	-0.5%	nt
COc1cccc(C(O)c2nc(-c3cnn(C)c3)cs2)c1 (centres undefined)	nt	-4.5	nt	nt	nt	4.4%	0.8%
ClCC1=Nc2ccccc2Cc2ccccc21	nt	-5.0	-1.5%[15.4 µM]	nt	5.1%	0.4%	nt
CCCCOc1ccc(S(=O)(=O)NNC(=O)C2Cc3c(ccc4ccccc34)O2)cc1 (centres undefined)	0.6%	-0.2	-24.4%	1.1	-2.7%	-6.3%	-3.3%
Cc1cccc(NC(=O)CCN2C(=O)c3cccc([N+](=O)[O-])c3C2=O)c1	13.5%	-1.3	4.0%	-0.5	-15.4%	2.5%	1.4%
C[C@H](NC(=O)C1CCN(S(=O)(=O)c2ccccc2)CC1)C(=O)NCc1ccc(Cl)cc1Cl	0.9%	-8.8	4.4%	nt	-14.1%	1.0%	-0.8%
COc1ccc(N(CC(=O)N2CCCCCC2)S(=O)(=O)c2ccc(OC)c(OC)c2)cc1	7.0%	4.8	-43.4%[inhibitor]	-3.3	8.6%	2.1%	nt
Cc1noc(C)c1Cn1nc(C(=O)O)c2ccccc2c1=O	2.6%	-3.0	-5.4%	6.9	15.1%	2.2%	1.1%
O=C(Cn1ccc(C(F)(F)F)n1)NNC(=O)c1cccnc1	16.9%	-2.3	-11.0%	nt	8.7%	2.1%	0.9%
Cc1ccc(C(=O)N/N=C/c2ccc(-c3cccc(C(F)(F)F)c3)o2)cn1	12.0%	-1.0	-5.0%[15.4 µM]	3.6	20.5%	17.0%	-0.3%
Cc1sc2ncn(CC(=O)NCC(=O)N3CCN(c4ccc(F)cc4)CC3)c(=O)c2c1C	11.9%	1.1	29.1%	-1.0	-3.4%	3.4%	nt
Brc1cc(-c2ccccc2)nc(-c2ccccc2)n1	nt	3.0	7.1%[15.4 µM]	nt	?	9.2%	nt
O=C(Cn1cnc2c(nnn2Cc2ccccc2F)c1=O)NCc1ccco1	89.1µM*	-0.4	-42.8%[inhibitor]	-1.3	8.8%	8.2%	1.4%
Cc1c(NC(=S)N/N=C\c2ccccc2O)c(=O)n(-c2ccccc2)n1C	13.0%	-5.0	7.6%	0.0	-5.4%	0.7%	-13.6%
COc1ccc(-n2c(-c3cccc(C)c3[N+](=O)[O-])n[nH]c2=S)cc1	16.5%	-1.7	?	3.4	?	0.3%	-1.8%
CC(=O)N1[C@H](C)C=C[C@]1(Cc1ccccc1)C(=O)O	6.9%&3.4%	-2.6	22.5%	-0.8&-4.4	4.7%	-0.8%	-0.5%
COc1ccc(-c2cnc3c(NC(C)=O)cc(-c4ccccc4CN(C)C)cn23)cc1OC	nt	-4.8	nt	nt	nt	-0.5%	4.6%
Cc1c(NC(=O)c2cc3ccccc3c(=O)s2)c(=O)n(-c2ccccc2)n1C	7.4%	-5.3	-52.8%[inhibitor]	-0.7	0.0%	-0.7%	1.1%
CCCCNc1ncnc2c1cnn2Cc1ccc(Cl)cc1	3.0%	-4.0	-23.9%	-0.6	3.5%	2.3%	2.4%
Cc1cc(C)c2c(N)c(C(=O)NCc3ccco3)sc2n1	-9.5%	-0.1	?	-0.1	0.6%	0.5%	-23.3%
O=C(CCCC(=O)N(CC(=O)NC1CCCC1)c1ccc(F)c(Cl)c1)Nc1ccccn1	8.8%	-2.2	13.0%[15.4 µM]	-3.9	-36.8%	-0.6%	nt
COc1ccc(CNC(=O)C(c2ccc(C)cc2)N(Cc2cccs2)C(=O)c2ccc3c(c2)OCCO3)cc1 (centres undefined)	14.9%	0.4	-36.6%[inhibitor]	6.3	-14.0%	-0.3%[38.3 µM]	-3.9%
O=C(c1ccncc1)N1N=C(C2CCCCC2)CC1(O)C(F)(F)F (centres undefined)	18.6%	-2.3	15.5%[15.4 µM]	1.1	-3.9%	-0.6%	nt
Cc1ccc(C)c(S(=O)(=O)Nc2ccc3scnc3c2)c1	-4.9%	-4.7	-24.6%	8.4	-22.6%	9.9%	0.8%
Cc1cc(OC(F)F)ccc1NC(=O)Nc1ccc2c(c1)OCO2	5.6%	-2.1	?	1.1	12.3%	1.4%	1.8%
CCN(CC)S(=O)(=O)c1cccc(NC(=O)c2cccc(S(=O)(=O)N3CCCC3)c2)c1	nt	4.3	-3.3%[15.4 µM]	nt	-10.3%	4.9%	-2.9%
CSc1nsc(SCC(=O)N2CCc3ccccc32)n1	-8.2%	-1.2	?	-0.5	2.1%[15.4 µM]	-1.0%	-2.8%
CCc1nnc(NC(=O)CCC(=O)Nc2ccc(OC)cc2OC)s1	2.3%	-2.9	-35.3%[inhibitor]	-0.8	1.1%	-1.2%	-2.9%
COc1nc2c(C)cccc2cc1-c1noc(-c2ccco2)n1	-7.5%	-3.2	10.4%	0.0	3.0%[15.4 µM]	11.2%	?
CCCCc1nc2n[nH]c(N)c2c2c1CSC(C)(C)C2	6.9%	1.7	-23.5%	0.4	-2.8%	9.4%	0.7%
COC(=O)c1c(NC(=O)c2ccc(C(=O)c3ccccc3)cc2)sc2c1CC(C)(C)NC2(C)C	nt	-10.0	-3.2%	nt	nt	2.0%	0.0%
COc1ccccc1-n1c(SCC(=O)Nc2cccc3ccccc23)nc(O)cc1=O	0.5%	-2.0	-13.6%	10.7	-31.5%	0.4%	-10.6%

Additional entries.
SMILES	Sfp PPTase inh	D2 ag	gsp agonist	Menin-MLL FL inh	gsp antagonist	PINK1 modulator	ClpP mod
COC(=O)CSc1nc2ccc(C)cc2[nH]1	6.7%	0.6	14.0%	4.1	-0.3%[15.4 µM]	0.8%	-5.3%
Cc1cccc(Cl)c1NNC(=O)Nc1c([N+](=O)[O-])c(C)nn1C	11.6%	-4.7	-2.9%[15.4 µM]	4.0	6.3%	-1.2%	nt
O=C(c1ccccc1)c1nnc(-c2ccccc2F)o1	17.6%	-2.0	-36.2%[inhibitor]	3.7	3.7%	1.9%	2.5%
Cc1ccc(S(=O)(=O)Nc2ccc3c(c2)nc(CCN2CCCCC2)n3C)cc1	9.1%	-3.6	17.3%[15.4 µM]	-1.0	2.8%	3.2%	nt
CCn1c(SC(C)C(=O)Nc2nccs2)nnc1-c1ccncc1 (centres undefined)	11.3%	-3.6	9.7%	nt	-0.9%	-0.4%	-18.5%
Cc1ccc(C(=O)CCC(=O)N(C)CC(=O)Nc2c(Cl)cccc2Cl)cc1	13.6%	-5.4	29.8%	nt	0.3%	1.3%	0.9%
CC(O)[C@H]1CNCCN1CC1(c2ccccc2)CC1 (some centres undefined)	nt	-1.5	?	nt	12.1%	4.6%	0.5%
Cc1noc(C)c1S(=O)(=O)Nc1ccc(C(=O)N2CCc3ccccc3C2)cc1	12.7%	-0.8	-35.8%[inhibitor]	4.1	-14.6%	-1.4%	0.6%
